Screens as filed in PubChem BioAssay.
VACV mCherry inh: vaccinia inhibition (mCherry reporter); 0.63% of 310,000 active; Vaccinia virus mCherry reporter infection, fluorescence; about a quarter of the inactives have no number; Potency, µM (series often up to 36.5 µM), without a hit: at the top dose activity change, negative = inhibition, most hits filed as inhibitors; active = well fitted inhibition curve with a large enough effect; inconclusive = small, poorly fitted or top-dose-only effect; inactive = no such curve, though single readings can be large or run the other way; tested in A549 cells; note: nearly all actives have a fitted effect of over 35% in size; inactives centre near -10
Vaccinia Venus: inhibitors of vaccinia virus (Venus reporter); Vaccinia virus Venus reporter expression, fluorescence; Potency, µM (highest dose often 36.5 µM), without a hit: top-dose activity change, negative = inhibition, actives largely listed as inhibitors; 0.46% of 330,000 active; active means well fitted inhibition curve with a large enough effect; inconclusive means small, poorly fitted or top-dose-only effect; inactive means no such curve, though single readings can be large or run the other way; tested in A549 cells; note: nearly all actives have a fitted effect of over 30% in size; inactives centre near -10
Active calls of the source: *; i = inactive; ? = inconclusive; / = no result given; [ ] = remark or other dose. % is set by controls: 0 for no effect and ±100 for the full control effect; potency is the fitted concentration of half-maximal effect.

SMILES	VACV mCherry inh	Vaccinia Venus
Cc1cc(C)c(S(=O)(=O)N2CCC(N3CCN(Cc4ccccc4)C(=O)C3=O)CC2)c(C)c1	-16%	-3%
COc1ccc(CN(C(=O)CSc2nnc(-c3ccccc3F)o2)c2ccc(F)cc2)cc1	-18%	-19%
CN(C(=O)CSc1nnnn1-c1ccccc1)C1CCS(=O)(=O)C1 (stereo not given)	4%	3%
CC(NC(=O)COC(=O)c1ccco1)c1ccccc1 (stereo not given)	3%	17%
CC(C)C(=O)Nc1ccccc1C(=O)N/N=C/c1ccc([N+](=O)[O-])cc1	1%	-6%
C=CCn1c(COc2ccc(Cl)cc2)nnc1SCC(=O)N/N=C/c1ccccc1	i	-17%
O=C(c1ccccc1)c1cccn1CC(=O)N1CCCCCC1	/	?
Cc1cccc(C(=O)Nc2cccc(OC(=O)c3cccc(C)c3)c2)c1	i[1.46 µM]	-20%
c1csc(CNc2nc(CN3CCCC(c4nc5ccccc5o4)C3)nc3ccccc23)c1 (stereo not given)	-14%	2%
Cc1ccc(S(=O)(=O)N2CCN(c3ccnc4cc(Cl)ccc34)CC2)cc1C	-11%	-12%
CN(C)S(=O)(=O)N(CC(=O)Nc1ccc(F)c(F)c1)c1ccccc1	-6%	0%
COC(=O)C1CCN(C(=O)c2ccc3nccnc3c2)CC1	-14%	-1%
Cc1ccc(CNC(=O)c2ccc(OCC3CCCO3)cc2)cc1 (stereo not given)	i	-4%
CCCOc1ccc(N2C(=O)CC(N(CCCO)C(=O)CC)C2=O)cc1 (stereo not given)	-10%	-3%
Cc1sc2ccccc2[n+]1CCCC[n+]1c(C)sc2ccccc21	2.8µM*	?
O=C(CC12CC3CC(CC(C3)C1)C2)NC(Cc1ccccc1)C(=O)O (stereo not given)	-5%	-15%
O=C(C1CCN(S(=O)(=O)c2ccc(Br)s2)CC1)N1CCc2ccccc21	/	?
CC1=C[C@H]2OC(=O)[C@@H](C)[C@H]2C[C@@H]2[C@H]1C[C@@H](O)[C@@]2(C)O	i	-10%
O=C(CN1C(=O)COc2ccc(S(=O)(=O)N3CCCCCC3)cc21)N1CCN(c2cccc(C(F)(F)F)c2)CC1	-19%	-11%
COc1ccc(F)c(-c2nc(CN3CCN(C(=O)c4ccco4)CC3)c(C)o2)c1	-10%	-8%
COc1ccc(C)cc1N(C(=O)CNC(=O)c1ccco1)C(C(=O)NCC1CCCO1)c1ccccc1 (stereo not given)	-10%	-2%
COC(=O)C1=C(C)NC2=C(C(=O)CC(C)(C)C2)C1c1ccccn1 (stereo not given)	-10%	-12%
COc1ccc(N2C(=O)CC(Sc3nc4ccccc4s3)C2=O)cc1OC (stereo not given)	i	-14%
CCOc1ccc(CNc2ccc3c(c2)ncn3C(C)(C)C)cc1	-22%	-22%
O=C(c1ccc(Cl)cc1)N(c1ccccn1)C1CCCCC1	-1%	-6%
CN(C(=O)CC1C(=O)NCCN1CC1CCCCC1)C1CCOCC1 (stereo not given)	i[7.34 µM]	-13%[7.34 µM]
CCCCCCn1c(N2CCC(C)CC2)nc2c1c(=O)[nH]c(=O)n2C	/	-13%
Cc1c(C(=O)N2CCN(Cc3nccn3C)CC2)oc2c(F)cccc12	i	-8%
C/C(=C\C(=O)c1c(O)cc(C)oc1=O)N(C)C	13%	0%
CC(C)CCc1noc(CN2CCN(CC(=O)NC(C)C)CC2)n1	-20%	-25%
CCOC(=O)N1CCN(CCC(=O)Nc2cc(OC)ccc2OC)CC1	0%	-1%
Cc1ccccc1Cn1cnc2ccccc21	-2%	-3%
O=C(c1cccc(F)c1F)N1CCOc2ccc(CN3CCN(Cc4ccccn4)CC3)cc2C1	-15%	-11%
Cc1ccc(S(=O)(=O)N2CCC(n3c(C)nc4cccnc43)CC2)c(C)c1	-21%	-18%
Cc1ccc(S(=O)(=O)c2nc(-c3ccco3)oc2SCc2ccccc2Cl)cc1	-11%	-14%
CC(=O)c1ccc(NC(=O)C2CCN(S(=O)(=O)c3ccc4c(c3)CCCN4C(=O)C3CCC3)CC2)cc1	-16%	-14%
CCN(CC)C(=O)C1=C(C)N(Cc2ccc(C(C)(C)C)cc2)C(=O)C(CC(=O)NCCCN(C)C)C1 (stereo not given)	i	-9%
O=C(N/N=C\c1cc2c(cc1Cl)OCO2)c1ccc(Br)s1	i	-11%
CC(C)(C)c1ccc(OCCC(=O)OCC(=O)NC(=O)NC2CCCC2)cc1	-19%	-3%
C=C1CCN(CC(=O)OC)S(=O)(=O)c2ccccc21	-13%	-8%
Cc1cccc(NC(=O)c2ccc(Cl)c(S(=O)(=O)N3CCCCCC3)c2)n1	-12%	-4%
COc1ccc(CNC(=O)Cc2c(C)c3c(cc(C)c4c(C)coc43)oc2=O)cc1OC	-5%	4%
COC(=O)c1sccc1NC(=O)c1ccc2c(c1)OCO2	-20%	-11%
CCOC(=O)C(NC(=O)CC(C)C)(Nc1sc(C)c(CC)c1C#N)C(F)(F)F (stereo not given)	-12%	-9%
Cc1cc(Nc2ccc(F)cc2Cl)n2nc(C)nc2n1	-11%	2%
CC(NC(=O)COC(=O)CCc1ccc(S(=O)(=O)N2CCOCC2)cc1)C1CC2CCC1C2 (stereo not given)	2%	-9%
Cc1ccnc(NC(=O)C2CCCN(S(=O)(=O)c3cnc[nH]3)C2)c1 (stereo not given)	7%	1%
CCCC1(C2CCCC2)NC(=O)NC1=O (stereo not given)	-15%	2%
Cc1ccc(NC(=O)c2nc(S(C)(=O)=O)ncc2N(Cc2ccccc2)Cc2ccco2)c(C)c1	-7%	-6%
COc1ccc(C(C(=O)NC(C)(C)C)N(C(=O)CCC(=O)Nc2cc(C)on2)c2cccc(F)c2)cc1 (stereo not given)	69%[activator]	-3%
CN(C(N)=S)c1ccccc1	/	-23%
O=C(Nc1ccc(N2CCOCC2)c(S(=O)(=O)Nc2ccccc2Cl)c1)c1ccc(=O)[nH]n1	-24%	-16%
CC(C)(C)OC(=O)[C@H](Cc1ccccc1)NC(=O)c1nc[nH]c1C(=O)NC1CCNCC1	i	-5%
N=c1c(S(=O)(=O)c2ccccc2)cc2c(=O)n3ccccc3nc2n1Cc1cccnc1	-27%	-2%
COc1cc(C(=O)NC(=S)Nc2ccc3oc(=O)ccc3c2)cc(OC)c1OC	-7%	-12%
CN(C(=S)Oc1ccc(C(=O)Nc2ccccc2)cc1)c1ccccc1	i	-4%
CC(=O)Oc1ccc(C(=O)NCCc2ccccc2)cc1	-2%	-13%
COc1ccc(-n2c(C)ccc2-c2ccccc2)cn1	-3%	9%
NC(=O)c1ccc(Oc2ncc(C(F)(F)F)cc2Cl)cc1	-14%	-14%
CC(CC(=O)Nc1ccc2c(c1)c(=O)n(C)n2-c1ccc2ccccc2c1)C(F)(F)F (stereo not given)	-29%	-23%

More compounds
SMILES	VACV mCherry inh	Vaccinia Venus
O=C(O)Cn1cc(C(=O)c2ccccc2)c2ccccc21	i	-17%
Cc1ccc(N(C(=O)c2csnn2)C(C(=O)NC2CCCC2)c2ccncc2)c(C)c1 (stereo not given)	3%	6%
COCc1cc(=O)[nH]c(-c2csc(C)n2)n1	-9%	-5%
O=C(CSC(=S)N1CCN(c2ccccc2)CC1)Nc1nc(-c2ccccc2)c(-c2ccccc2)o1	-15%	-11%
Cc1cc(C)nc(Nc2n[nH]c(-c3ccccc3N)n2)n1	-18%[7.34 µM]	-15%[7.34 µM]
COc1ccc(NC(=O)/C(C#N)=C/c2cccnc2)c(OC)c1	-11%	-16%
CC[C@@]1(C(=O)OC)N[C@H](CN(C)C(=O)Nc2ccc(OC)cc2)[C@@H]2C(=O)N(Cc3ccccc3)C(=O)[C@@H]21	-28%	?
COC(=O)c1scc(-c2ccccc2)c1S(=O)(=O)Nc1cccc(C)c1C	-9%	-2%
CCOC(=O)N1CCN(C(=O)CN(C)S(=O)(=O)c2ccc(F)cc2)CC1	-10%	-15%
CCNS(=O)(=O)c1ccc(CCC(=O)N2CCN(c3cccc(Cl)c3)CC2)cc1	-28%	-14%
CCN(CC)C(=O)c1ccc(O)c(OC)c1	i	-9%
CC(=O)Nc1ccc(/C=N/NC(=S)NC(C)C)cc1	i	-1%
O=S(=O)(c1ccccc1)c1nnn2c1nc(NCc1ccccc1)c1cc(Cl)ccc12	?	-30%
CCOc1cccc(C(=O)Nc2ccc3oc(-c4ccc(C(C)(C)C)cc4)nc3c2)c1	-23%	-5%
CCOc1ccc(CNC(=O)c2ccc(Sc3ccc(Cl)cc3)c(NC(C)=O)c2)cc1	?	?

By substructure, the entries above containing a thiophene ring, fused or not.
SMILES	VACV mCherry inh	Vaccinia Venus
c1csc(CNc2nc(CN3CCCC(c4nc5ccccc5o4)C3)nc3ccccc23)c1 (stereo not given)	-14%	2%
O=C(C1CCN(S(=O)(=O)c2ccc(Br)s2)CC1)N1CCc2ccccc21	/	?
O=C(N/N=C\c1cc2c(cc1Cl)OCO2)c1ccc(Br)s1	i	-11%
COC(=O)c1sccc1NC(=O)c1ccc2c(c1)OCO2	-20%	-11%
CCOC(=O)C(NC(=O)CC(C)C)(Nc1sc(C)c(CC)c1C#N)C(F)(F)F (stereo not given)	-12%	-9%
COC(=O)c1scc(-c2ccccc2)c1S(=O)(=O)Nc1cccc(C)c1C	-9%	-2%

Remaining list, next part
SMILES	VACV mCherry inh	Vaccinia Venus
COc1cc(C(=O)Nc2c(C)cc(C)cc2C)c(Br)c(OC)c1OC	i	5%
CCOc1cc(C(=O)N/N=C/C(Br)=C/c2ccccc2)cc(OCC)c1OCC	?	?
O=C(Nc1sc2c(c1C(=O)NCc1ccccc1)CCCC2)c1cc(=O)c2cc(Cl)ccc2o1	4%	4%
CCc1ccccc1Nc1cc(C(=O)NCCc2ccccc2)c2ccccc2n1	6%	1%
N#Cc1ccccc1OCC(=O)OCC(=O)NC1CCCC1	0%	-5%
Cc1c(OCC(=O)N[C@@H](Cc2c[nH]c3ccccc23)C(=O)O)ccc2c1oc(=O)c1ccccc12	2%	10%
CCCCC1C(=O)NN(c2ccccc2)C1=O (stereo not given)	-11%	3%
COc1ccc(Cl)cc1N(C)C(=O)CCNC(=O)Cn1cnc2ccccc2c1=O	?	0%
COc1ccc(CN(Cc2ccco2)C(=O)COc2ccccc2Cl)cc1	1%	-3%
CC1(C)OC(=O)C(=CNn2cnc3ccccc3c2=O)C(=O)O1	0%	6%
CS(=O)(=O)c1ccc(NCCN2CCOCC2)c([N+](=O)[O-])c1	i	-5%
CCCCn1nnnc1C(c1cccc2ccccc12)N1CCC2(CC1)C(=O)NCN2c1ccccc1 (stereo not given)	-23%	-16%
COc1ccc(CCNC(=O)C2CCCN(c3nc4ccccc4s3)C2)cc1OC (stereo not given)	16%	-5%
COc1cc(OC)cc(C(=O)NNC(=O)CCC(=O)c2cc(C)sc2C)c1	-11%	-1%
CC1(C)Oc2ccc3ccc(=O)oc3c2/C(=C/NC2CCCCC2)C1=O	?	-21%
COc1cccc(CNC(=O)C2CCN(S(=O)(=O)N3CCC4(CC3)OCCO4)CC2)c1	i	-17%
COc1ccc(C2C(C#N)=C(N)Oc3cc(O)ccc32)cc1 (stereo not given)	-20%	-3%
COc1ccc(-n2nc(C(=O)Nc3cccc(Cl)c3)c3c4ccccc4n(C)c3c2=O)cc1Cl	11%	2%
CC(=O)Oc1ccc(CCC(C)OC(C)=O)cc1 (stereo not given)	0%	7%
COc1cc2c(cc1NC(=O)C(c1ccccc1)c1ccccc1)CCCC2	/	-27%
CCC(C)NC(=O)Cn1c(=O)n(-c2ccc(C)c(C)c2)c(=O)c2c3c(sc21)CCCCC3 (stereo not given)	?	?
NC(=O)c1ccc(/C(N)=N/S(=O)(=O)c2cc(C(F)(F)F)cc(C(F)(F)F)c2)cc1	i[7.34 µM]	-6%[7.34 µM]
Cc1ccc(NC(=O)c2c(NC(=O)c3ccccc3)sc3c2CCC3)cc1	-4%	0%
C/C(=N\NC(=O)c1nn(C)cc1Br)c1ccncc1	-14%	6%
Cc1ccc(CN2CCN(Cc3cccc4c3OCO4)CC2CCO)cc1 (stereo not given)	-10%	0%
Cc1ccc(C)c(OCCC(=O)NCCc2ccc(Cl)cc2)c1	-1%	-16%
COc1ccc(CN(C(=O)c2oc3ccccc3c2C)C2CCS(=O)(=O)C2)cc1 (stereo not given)	/	-18%
Cc1nc(C)c(-c2ccc(SCC(=O)Nc3cccc(Cl)c3)nn2)s1	-11%	-14%
CCCN1CCc2c(sc(NC(=O)Cc3ccc(F)cc3)c2C(N)=O)C1	?	-29%
CCOc1ccc(/C=N/Nc2ccccn2)cc1	-15%	-19%

Single records, from the list above. Order of screens: VACV mCherry inh	Vaccinia Venus
Results for C/C(=N\NC(=O)c1nn(C)cc1Br)c1ccncc1 = -14%	6%
Results for COc1ccc(CN(C(=O)c2oc3ccccc3c2C)C2CCS(=O)(=O)C2)cc1 (stereo not given) = /	-18%
Results for Cc1ccc(CN2CCN(Cc3cccc4c3OCO4)CC2CCO)cc1 (stereo not given) = -10%	0%

The results go on.
SMILES	VACV mCherry inh	Vaccinia Venus
CC1(C)CC(=O)C(CC(=O)N2CCC(Cc3ccccc3)CC2)C(=O)C1	-12%	-21%
COc1cc(S(=O)(=O)NC2CCCC2)ccc1Cl	-20%	-3%
O=C(NCc1cccs1)C1CC(O)CN1C(=O)Nc1ccccc1 (stereo not given)	i	-4%
C/C(=N\NC(=O)c1nonc1N)c1cccs1	i	-6%
COc1cc(C)c(N)cc1C(C)C	-12%	-1%
CC(C)COc1cccc(C(=O)Nc2ccc(CN3CCOCC3)cc2)c1	-12%	?
Cc1cc(C)n(CC(=O)NC2CCCc3c2cnn3-c2ccc(C)c(C)c2)n1 (stereo not given)	i	-11%
Cc1ccc(S(=O)(=O)N2CCN(C(=O)CSc3ccccn3)CC2)c(C)c1	-3%	-18%
